# gsp antag: qHTS for Antagonists of gsp, the Etiologic Mutation Responsible for Fibrous Dysplasia/McCune-Albright Syndrome: qHTS. AID 624288, 2012. actives 0.4% (n = 340,000). gsp-mutant cells, cAMP HTRF, 30 min; control for the full effect not named in the record. Potency, µM (highest dose often 76.9 µM), for the others: at the top dose activity change, negative = inhibition, actives largely listed as inhibitors; active = falling curve of any shape with a large fitted effect; inconclusive = falling curve, mostly with a smaller effect; inactive = flat or rising curve; cell line not stated here;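 also: intracellular cAMP measured with PDE inhibitor Ro 20-1724 present during compound exposure; potency is read from the fitted curve at half-maximal effect; % is scaled to controls: 0 for no effect and ±100 for the full control effect; nearly all actives have a fitted effect of over 65% in size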
#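 Cells in G418 medium, seeded 16-24 h, 37C; buffer exchange to DPBS + 1 mM CaCl2, 0.5 mM MgCl2, 0.05% BSA; cpds in DMSO + […] (300 uM stock), 30 min 37C; HTRF cAMP detection.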
# CtBP-E1A inh: qHTS Assay for Inhibitors of the CtBP/E1A Interaction; actives 0.49% (n = 340,000); AlphaScreen GST-E1A/His-CtBP binding, 1536-well; stronger effect = lower value; control for the full effect not named in the record; CtBP / adenovirus E1A interaction (AlphaScreen); activity change, % (test concentration not listed); in the data active means activity change below about -65%; inconclusive means about -30% to -65%; inactive means above about -30%; also: % is scaled to controls: 0 for no effect and ±100 for the full control effect; compound concentration not given in the record
#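 Homogeneous bead-based format: GST-tagged E1A captured on glutathione donor beads, His-tagged CtBP on nickel acceptor beads; compounds precede bead addition by 2 h at 37 °C.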
# D2 PAM: Beta-Arrestin HTS for Positive Allosteric Modulators of the Human D2 Dopamine Receptor: Potentiators; potentiation, % (concentration not given with the values); AID 624464, 2012; actives 0.23% (n = 360,000); DiscoveRx D2 beta-arrestin cells, luminescence, 90 min; 100% = 57 uM dopamine signal; D(2) dopamine receptor (Homo sapiens), P14416; active = potentiation of 50% or more; inconclusive = 30% to 50%; inactive = 30% or less;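 also: compound concentration not given in the record; tested on top of an EC20 dose of dopamine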
#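 PathHunter beta-arrestin assay in DiscoveRx D2 cells. Compounds were added with an EC20 of dopamine (50 nM final) for 90 min at 37 deg C. Luminescence was read 1 h after detection reagent, with 57 uM dopamine as the EC100 control.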
# Six1-Eya2 inh: qHTS Assay for Inhibitors of the Six1/Eya2 Interaction; activity change, % (no concentration beside the values); AlphaScreen GST-Six1/His-Eya2 binding, biochemical; stronger effect = lower value; control for the full effect not named in the record; actives 0.56% (n = 360,000); in the data active = activity change below about -65%; inconclusive = about -30% to -65%; inactive = above about -30%; also: % is scaled to controls: 0 for no effect and ±100 for the full control effect; compound concentration not given in the record
# Target sequence (O00167 whole entry, looked up): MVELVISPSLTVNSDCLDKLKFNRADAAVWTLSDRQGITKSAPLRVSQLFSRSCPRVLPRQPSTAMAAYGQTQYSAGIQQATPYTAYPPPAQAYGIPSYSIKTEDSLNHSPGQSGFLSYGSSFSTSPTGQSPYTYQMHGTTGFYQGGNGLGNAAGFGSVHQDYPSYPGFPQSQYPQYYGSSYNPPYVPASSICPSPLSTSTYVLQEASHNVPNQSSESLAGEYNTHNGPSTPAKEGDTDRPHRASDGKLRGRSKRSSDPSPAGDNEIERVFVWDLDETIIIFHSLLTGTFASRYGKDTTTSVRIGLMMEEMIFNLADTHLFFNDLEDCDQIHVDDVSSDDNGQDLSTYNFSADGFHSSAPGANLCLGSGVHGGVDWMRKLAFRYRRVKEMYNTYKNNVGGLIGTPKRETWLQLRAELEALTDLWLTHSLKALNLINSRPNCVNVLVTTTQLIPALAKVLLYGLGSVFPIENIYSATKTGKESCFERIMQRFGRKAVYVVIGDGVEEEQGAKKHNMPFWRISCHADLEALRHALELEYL
# Target sequence (Q15475 whole entry, looked up): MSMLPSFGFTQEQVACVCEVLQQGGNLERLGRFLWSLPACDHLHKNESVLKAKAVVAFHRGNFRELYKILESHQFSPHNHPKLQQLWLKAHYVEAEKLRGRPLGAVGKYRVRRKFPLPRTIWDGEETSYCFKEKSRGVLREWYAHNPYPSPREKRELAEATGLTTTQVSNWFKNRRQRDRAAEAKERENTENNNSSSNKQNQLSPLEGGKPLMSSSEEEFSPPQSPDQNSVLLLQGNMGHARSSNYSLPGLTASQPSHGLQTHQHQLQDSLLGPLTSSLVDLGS
#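 Compounds are tested against tagged Six1 and Eya2 proteins bridged by glutathione donor and nickel acceptor beads; after a one-hour incubation at 37 °C without light, AlphaScreen emission is recorded.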
# D2 agonist: Beta-Arrestin HTS for Positive Allosteric Modulators of the Human D2 Dopamine Receptor: Agonists | activation, % (test concentration not listed) | DiscoveRx PathHunter D2 beta-arrestin, luminescence, 90 min; 100% = 57 uM dopamine signal | actives 0.084% (n = 360,000) | D(2) dopamine receptor (Homo sapiens), P14416; in the data active = activation above about 40%; inconclusive = about 15% to 40%; inactive = below about 15%; also: compound concentration not given in the record; the text of the record calls up to 30% inactive
#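 Agonist mode: compounds alone added to overnight-plated D2 PathHunter cells for 90 min at 37 C, with 57 uM final dopamine (EC100) defining full response. Beta-arrestin recruitment detected by chemiluminescent reagent, read after 1 h at ambient temperature.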
# gsp ag: qHTS for Agonist of gsp, the Etiologic Mutation Responsible for Fibrous Dysplasia/McCune-Albright Syndrome: qHTS; gsp mutant cells, cAMP HTRF, 30 min; control for the full effect not named in the record; actives 0.13% (n = 340,000); AID 624287, 2012; Potency, µM (titrated, usually from 76.9 µM), without a hit: at the top dose activation (cAMP increase), actives largely listed as activators; active = well fitted activation curve with a large enough effect; inconclusive = small, poorly fitted or top-dose-only effect, or another doubt; inactive = no such curve, though single readings can be large or run the other way; cell line not stated here;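 also: phosphodiesterase inhibitor Ro 20-1724 added with compounds to block cAMP breakdown; potency is read from the fitted curve at half-maximal effect; nearly all actives have a fitted effect of over 60% in size; about a fifth of the inactives were tested at one dose only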
#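 Cells in DMEM/10% FBS with G418 were pretreated with compounds in DMSO plus […] (300 uM stock) for 30 min at 37C. cAMP was measured by HTRF (cAMP-d2 plus anti-cAMP antibody-K) after 30 min at room temperature.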
# * marks the source's active call; other numbers are inactive results; ? = inconclusive; · = not tested or not shown; [ ] = remark or other dose.
structure	gsp antag	CtBP-E1A inh	D2 PAM	Six1-Eya2 inh	D2 agonist	gsp ag
Nc1nc(-c2ccccc2)nn1S(=O)(=O)c1ccccc1	3%	-1	-33	-3	4.1	5%
CN(Cc1cn(-c2ccccc2)nc1-c1ccc(Cl)cc1)C(=O)CCC(=O)O	?	-18	-3	-11	1.1	16%
O=c1c(Oc2ccccc2)coc2cc(O)cc(O)c12	-13%	-3	-6	-3	2.2	·
CC1(c2ccccc2Cl)NC(=O)N(CC(=O)NC(=O)NCc2ccco2)C1=O (stereo not drawn)	9%	-5	-21	-2	-1.8	11%
Cc1c(OCC(=O)N[C@@H](Cc2ccccc2)C(=O)O)ccc2c3c(c(=O)oc12)CCC3	6%	-19	4	-22	2.8	·
COC(=O)CCC(=O)N1CCCC(CO)(Cc2ccccc2)C1 (stereo not drawn)	-10%	·	-5	1	3.2	-16%
O=C(/C=C/c1ccc(N2CCC(c3ccccc3)=N2)cc1)c1ccccc1	20%	12	-14	35	-5.3	4%
CCCCCn1c(=O)[nH]c2cc(C(=O)NCc3ccccn3)ccc2c1=O	-10%	-7	-2	-13	-1.1	-7%
O=C(NCCCC1CCCC1)C1CCC(=O)N(Cc2ccccc2F)C1 (stereo not drawn)	0%	7	4	3	-0.6	-30%[inhibitor]
CCCCNC(=O)C1(C)CCCCN1C(=O)c1ccc(C#N)cc1 (stereo not drawn)	·	9	-1	1	5.7	·
O=C(O)CC(c1ccccc1)c1ccc2c(c1)OCO2 (stereo not drawn)	·	-2	0	-5	-2.3	-31%[inhibitor]
Cc1ccccc1C1c2[nH]c3ccccc3c2C[C@H]2C(=O)N(C3CC3)CC(=O)N12 (stereo partly drawn)	-2%	-4	-7	-18	-0.9	-36%[inhibitor]

# Given with each value named: part of the list above
Molecule: Cc1c(OCC(=O)N[C@@H](Cc2ccccc2)C(=O)O)ccc2c3c(c(=O)oc12)CCC3
  gsp antag: 6%	CtBP-E1A inh: -19	D2 PAM: 4	Six1-Eya2 inh: -22	D2 agonist: 2.8	gsp ag: ·
Molecule: CCCCNC(=O)C1(C)CCCCN1C(=O)c1ccc(C#N)cc1 (stereo not drawn)
  gsp antag: ·	CtBP-E1A inh: 9	D2 PAM: -1	Six1-Eya2 inh: 1	D2 agonist: 5.7	gsp ag: ·

# Later entries
structure	gsp antag	CtBP-E1A inh	D2 PAM	Six1-Eya2 inh	D2 agonist	gsp ag
COc1ccccc1CCNC(=O)CSc1ccc(-c2ccco2)nn1	-13%	-5	-6	3	-4.7	26%[15.4 µM]
NC(CCc1ccccc1)c1csc(NC(=O)NCCc2ccccc2)n1 (stereo not drawn)	·	-12	-3	-17	6.7	·
COc1ccccc1/C=N\Nc1cn[nH]c(=O)c1Cl	-3%	-4	-3	-1	0.3	12%[15.4 µM]
CC1CCC/C(=N\NC(=O)c2ccncc2)C1 (stereo not drawn)	3%	·	-7	3	4.2	-89%[inhibitor]
COc1ccc2oc(C(=O)N3CCN(c4ncccn4)CC3)c(C)c2c1	5%	2	2	3	3.2	9%
COc1ccccc1-c1ccc(/C=N/O)o1	18%	-1	-5	3	-7.1	4%[15.4 µM]
C=CC[C@@H](CC(=O)NCCO)C(=O)NC[C@H](OC(=O)[C@@H](CC=C)CC(=O)OC(C)(C)C)c1ccccc1	7%	6	-1	2	-5.8	10%
Nc1c(-c2cccc(Cl)c2)cnn1-c1cccc([N+](=O)[O-])c1	-31%	4	-3	-7	4.4	-53%[inhibitor]
Cc1ccc(CN2CCN(/N=C/c3cc(Br)ccc3F)CC2)cc1	1%	-18	-3	-23	-5.2	2%
CCOC(=O)c1sc2nc(C)nc(Nc3ccc(OC)c(OC)c3)c2c1C	6%	-30	3	-5	6.1	-8%[15.4 µM]
COC(=O)C1CCN(c2cc(Cl)nc(N)n2)CC1	13%	-5	-7	5	3.6	9%[15.4 µM]
O=C(c1ccc(COc2ccccc2)o1)N1CCN(S(=O)(=O)c2ccccc2Cl)CC1	?	·	3	-3	0.1	3%
CCCOc1ccc(NC(=O)CNC(=O)c2cc(OC)cc(OC)c2)cc1OCCC	-6%	·	-6	-5	-2.4	-7%
Cc1cc(NC(=O)C(C)SCC(=O)OCc2ccc(Cl)cc2Cl)no1 (stereo not drawn)	-2%	·	-7	3	-1.5	?
CN(NC(=O)COc1ccccc1)C1=NS(=O)(=O)c2ccccc21	3%	-7	-5	9	-6.9	-12%
CCCCC(=O)Nc1ccc(C(N)=O)cc1	4%	-3	-6	5	-0.1	13%
COc1ccccc1OCC(=O)OC/C(O)=C(\C#N)c1nc2ccccc2[nH]1	4%	·	1	-13	-1.5	-2%
CC1(C)Cc2c(C#N)c(SCCC#N)nc(N3CCOCC3)c2CO1	-20%	10	-8	3	-1.1	22%[15.4 µM]
CCCN(CCC)C(=O)C1CCCN(S(=O)(=O)c2ccc3c(c2)oc(=O)n3C)C1 (stereo not drawn)	-9%	2	9	3	2.8	-34%[inhibitor]
Cc1ccc(C2(C)NC(=O)N(CC(=O)NC(=O)NCCC(C)C)C2=O)cc1 (stereo not drawn)	-6%	-5	-7	2	4.5	-2%
CC(C(=O)N1CCOCC1)N1C(=O)C2C3C=CC(C4CC34)C2C1=O (stereo not drawn)	21%	1	-5	18	-2.6	-4%[15.4 µM]
CC1=Nc2ccccc2N=C(NC(=O)CSC(=S)N2CCN(C)CC2)C1c1ccccc1 (stereo not drawn)	-3%	-1	-10	-9	0.1	1%[15.4 µM]
CC1CCc2nc3ccccc3c(C(=O)OCC(=O)NC3CCS(=O)(=O)C3)c2C1 (stereo not drawn)	2%	-8	1	-9	-1.0	0%[15.4 µM]
Clc1ccc(-c2csc(NNC3=NCCCCC3)n2)cc1	19%	-23	-56	-23	-1.1	2%
CC1CCc2c(sc(NC(=O)/C=C/c3cccs3)c2C(=O)O)C1 (stereo not drawn)	?	2	-5	-3	-7.2	-28%
CC(NC(=O)/C(C#N)=C/c1ccco1)c1ccccc1 (stereo not drawn)	1%	7	-4	9	0.2	-4%[15.4 µM]
COc1ccc(C(=O)Nc2cccc(NC(=O)c3ccc(OC)cc3OC)n2)c(OC)c1	-8%	·	-11	3	3.4	16µM*
COc1cc(N)c(Cl)cc1C(=O)OCC(=O)Nc1cccnc1Cl	15%	6	-11	-1	-1.0	-8%
O=C(CCCc1ccccc1)NCCc1ccc(F)cc1	4%	4	-11	4	-0.6	12%[15.4 µM]
COc1cc(/C=N/N2CCOCC2)ccc1OCc1ccc(Cl)cc1	-17%	-1	-1	-23	5.8	1%[15.4 µM]
O=C(NCc1ccc(Cl)cc1)c1cccc(NC(=O)c2ccccc2)c1	-35%	-23	-16	-17	-2.1	9%
COC(=O)C1(C)Nc2ccccc2C(=O)N1c1ccccc1C (stereo not drawn)	-9%	-15	0	10	-0.5	-16%
O=C(Nc1ccc(C(=O)N2CCCCC2)cc1)C1CC1	11%	7	4	7	0.6	·
COC(=O)c1ccc(CN2C(=O)NC3(CCCc4ccccc43)C2=O)o1 (stereo not drawn)	0%	1	-9	0	-1.5	30%
COc1ccc(/C=N/n2cnc3c([nH]c4ccc(F)cc43)c2=O)cc1CSc1ccccn1	5%	-7	-3	-5	-5.5	-2%[15.4 µM]
Cn1c(SCc2c(Cl)cccc2Cl)nnc1-c1ccc2nonc2c1	-4%	-2	-11	-11	-0.4	-7%[15.4 µM]
CN1CCCN(C(=O)c2ccc(Br)s2)CC1	-9%	8	-18	-9	-1.2	?
O=C(CCC1CCCCC1)NCCS(=O)(=O)N1CCN(c2ccccc2)CC1	-2%	2	-20	22	-3.4	-6%
Cc1cc(N2CCOCC2)nc(-c2ccccc2O)n1	-4%	6	-12	0	-4.3	8%
O=C(CNC(=O)c1sc2ccccc2c1Cl)OCc1ccccc1	3%	-1	2	18	1.0	-21%
Cc1ccc(NC(=O)c2ccccc2NS(=O)(=O)c2ccc(Cl)s2)cc1S(=O)(=O)N1CCOCC1	?	5	7	-6	-1.2	-36%[inhibitor]
CCCS(=O)(=O)NC(=O)C1(C)CCN(C(=O)c2nc(C)oc2C)C1 (stereo not drawn)	·	5	-7	-1	-4.4	·
O=C(/C=C/c1ccc(Cl)cc1)N1CCN(c2ccccc2[N+](=O)[O-])CC1	-27%	-24	-12	-3	-2.4	-2%[15.4 µM]
O=C(CCC(=O)n1ncc2ccccc21)N1CCCCC1	6%	-2	-6	3	-5.8	-36%
COc1ccc(S(=O)(=O)N2Cc3ccccc3CC2C(=O)O)cc1OC (stereo not drawn)	8%	-2	-8	7	-3.1	7%
CCOc1ccc(-n2c(C)nc3cc(C(=O)NCC4CCCO4)ccc32)cc1 (stereo not drawn)	3%	-1	-12	-5	-1.5	-3%
COc1ccc(-c2nn(-c3ccccc3)cc2/C=N/Nc2ccccn2)cc1OC	-9%	8	-32	?	-7.3	-7%
N#CN=C(N)c1ccccc1	4%	7	-5	4	0.2	-38%
CCC(=O)N1CCC1(C)C(=O)Nc1cccc2c1CCCC2 (stereo not drawn)	·	0	-1	0	-6.8	·
COc1ccc(Cc2noc(CN3CCCN(Cc4ccc(F)cc4)CC3)n2)cc1OC	2%	-3	-15	-10	2.0	15%
NC(=O)C1CCN(c2ncccc2[N+](=O)[O-])CC1	1%	6	-3	8	3.4	5%[15.4 µM]
CC1(C)Cc2c(c(N3CCOCC3)nc3snc(NC(=O)c4ccccc4)c23)CO1	2%	-1	-22	0	-1.8	17%
CCCCC(=O)NC(c1ccccc1OC)c1ccc2cccnc2c1O (stereo not drawn)	2%	-92*	-5	-76*	0.4	9%
CN(C)C(=S)NC(=O)C(c1ccccc1)c1ccccc1	11%	0	-3	7	3.7	10%
CCCOc1nnnn1-c1ccccc1	4%	5	-7	1	-2.8	-49%[inhibitor]
CN(c1ccc(Cl)cc1)S(=O)(=O)c1nnc(NC(=O)c2ccco2)s1	1%	5	-1	-4	3.9	19%
COc1ccc(C(=O)Nc2ccc([N+](=O)[O-])cn2)c(OC)c1	11%	-7	5	2	-0.7	0%
CCCSc1ccc(C(=O)Nc2ccc(F)cc2F)cn1	9%	6	4	6	-0.5	-9%

# Screening data from PubChem.

# This is a random part of the collection (roughly 1.4% active in at least one column).
